E coli growth: E. coli growth inhibition, primary screen, OD600. Escherichia coli growth, 23 h; stronger effect = lower value. OD600 absorbance (concentration not given with the values). hit rate 0.21% among 330,000;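 active means OD600 absorbance below the run mean of sample wells minus 3.6 SD, in any replicate, cut at about 0.56 in these data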;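 further: stock transfer was 300 nL into about 60 µL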
UCH37 DUB inh: inhibitors of human UCH37 deubiquitinase, primary screen, biochemical, Ub-AMC cleavage, fluorescence. Ubiquitin carboxyl-terminal hydrolase isozyme L5 (Homo sapiens), Q9Y5K5. purified proteasome/UCH37. inhibition, % (test concentration not listed). hit rate 0.33% among 330,000;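 active means mean of two replicates above 20%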;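 further: 0% = compound-free wells with enzyme and 100% = wells lacking proteasome; stock transfer was 100 nL into about 20 µL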
Target sequence (Q9Y5K5 whole entry, looked up): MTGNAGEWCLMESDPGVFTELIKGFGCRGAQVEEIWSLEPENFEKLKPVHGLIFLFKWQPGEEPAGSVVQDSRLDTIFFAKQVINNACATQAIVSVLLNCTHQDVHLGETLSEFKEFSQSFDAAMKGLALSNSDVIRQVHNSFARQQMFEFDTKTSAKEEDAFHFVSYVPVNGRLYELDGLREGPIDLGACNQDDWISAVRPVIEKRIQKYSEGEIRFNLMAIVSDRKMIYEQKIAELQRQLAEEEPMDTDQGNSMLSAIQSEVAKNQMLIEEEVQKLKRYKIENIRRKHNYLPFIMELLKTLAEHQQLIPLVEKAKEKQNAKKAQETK
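System: Proteasome-associated human UCH37 deubiquitinase; Input: 0.15 nM proteasome in added enzyme buffer; Also added: Ub-AMC substrate from 1 µM stock; Incubation: 30 min compound-proteasome preincubation then 25 min substrate reaction, room temperature; Detection: fluorescence, ex 355 nm, em 460 nm; Read-out: % inhibition of Ub-AMC cleavage fluorescence; Benchmarks: no-proteasome and no-compound wells.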
Beta apoptosis: inhibitors of cytokine-induced beta cell apoptosis, primary screen, luminescence; hit rate 0.8% among 300,000; INS-1E cytokine-induced death, ATP luminescence, 48 h; percent of positive-control rescue, neutral wells zero; protection from apoptosis, % (concentration not given with the values);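 active means all replicates at 75% or more, or half of them and the mean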;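 further: 0% = cytokine-treated negative control wells and 100% = positive control rescue; higher means more ATP so stronger rescue from cytokine killing; wells of about 40 µL received 100 nL stock; the first replicate is given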
AF4-AF9 inh: inhibitors of AF4 peptide binding to AF9, primary screen, biochemical, AlphaScreen, biotin-AF4 peptide, FLAG-AF9, single point | Protein AF-9 (Homo sapiens), P42568 | inhibition, % at 10 µM | hit rate 0.47% among 350,000;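 active means every replicate reaching a set inhibition limit, whatever the replicate mean, cut at about 25% in these data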;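 further: 0% = plate neutral control median and 100% = total signal loss; the record names both 10 and 1 µM as test concentration; the first replicate is given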
Target sequence (P42568 whole entry, looked up): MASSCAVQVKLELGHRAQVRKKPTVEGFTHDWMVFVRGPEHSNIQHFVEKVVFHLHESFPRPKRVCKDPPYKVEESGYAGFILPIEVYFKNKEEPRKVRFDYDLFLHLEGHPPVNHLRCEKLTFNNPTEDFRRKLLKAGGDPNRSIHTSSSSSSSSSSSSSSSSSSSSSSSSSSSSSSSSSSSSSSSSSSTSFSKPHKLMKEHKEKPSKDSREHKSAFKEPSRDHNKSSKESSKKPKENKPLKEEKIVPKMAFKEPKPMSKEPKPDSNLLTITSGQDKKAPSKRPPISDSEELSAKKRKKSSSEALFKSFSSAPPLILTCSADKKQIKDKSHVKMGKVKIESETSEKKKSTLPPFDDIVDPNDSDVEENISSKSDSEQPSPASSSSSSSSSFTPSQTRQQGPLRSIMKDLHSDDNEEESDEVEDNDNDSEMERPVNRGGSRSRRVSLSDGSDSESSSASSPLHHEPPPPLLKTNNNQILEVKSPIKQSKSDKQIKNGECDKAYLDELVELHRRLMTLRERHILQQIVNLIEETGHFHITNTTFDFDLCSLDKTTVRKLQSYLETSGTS
T cruzi repl: inhibitors of intracellular T. cruzi growth, primary screen, luminescence, NIH3T3 host cells; T. cruzi beta-gal in NIH3T3, 90 h; inhibition, % (test concentration not listed); hit rate 1.4% among 300,000;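 active means mean inhibition across valid replicates above about 55%, limit read from the data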;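 further: signal also drops with host cell toxicity which is not excluded here; 0% = plate median of DMSO wells and 100% = zero luminescence signal; higher percent means less beta-gal luminescence so fewer parasites; stock transfer was 50 nL into about 50 µL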
rRNA inh HTS: reduced GFP signal of wild-type E. coli, primary screen, bacterial rRNA inhibitor project, GFP/RFP fluorescence, OD600, single point. GFP signal change (wild-type ribosome), % (no concentration beside the values). E. coli WT GFP vs humanized-ribosome RFP mutants, 24 h; stronger effect = lower value; DMSO median 0, no signal -100. hit rate 1.6% among 350,000;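 active means significant combined selectivity score with lowered wild-type GFP, culture density cut under 30%, mutant RFP and density less affected; inactive means any of these conditions unmet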; further: one replicate is shown; some compounds called inactive have numbers as strong as hits
Bfl-1 A1 inh: caspase 3/7 activation in MEF A1-2A-BIM cells, primary screen, A1 inhibitor project, cell-based, luminescence, HTS | Caspase-Glo 3/7 luminescence, 3 h; percent of clofoctol response, vehicle zero | caspase activation, % (no concentration beside the values) | hit rate 0.066% among 330,000;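 active means over half of replicate activation scores above 10%, or exactly half above 10 with the replicate mean above 10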;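 further: wells of about 30 µL received 50 nL stock; many hits fall short of the cut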
FGF22 binding: binders of human FGF22 protein, primary screen, FGF22 synaptogenesis inhibitor project, biophysical, thermal shift, single point | recombinant FGF22 thermal shift, SYPRO orange fluorescence; percent of sucrose octasulfate shift, DMSO zero | calls only at 9.99 µM | Fibroblast growth factor 22 (Homo sapiens), Q9HCT0 | hit rate 1.5% among 340,000;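 active means melting point raised past a set limit in the mean and every replicate; three in four hits are not shown here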
Target sequence (Q9HCT0 whole entry, looked up): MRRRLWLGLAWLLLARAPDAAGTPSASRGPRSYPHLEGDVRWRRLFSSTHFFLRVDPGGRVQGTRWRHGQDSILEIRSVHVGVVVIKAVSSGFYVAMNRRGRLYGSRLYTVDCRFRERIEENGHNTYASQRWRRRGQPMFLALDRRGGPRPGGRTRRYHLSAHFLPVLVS
rRNA inh HTS OD600: further read-out of rRNA inh HTS, marked with its call; OD600 change, %; measured here: OD600 growth;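 optical density of the mix in the first replicate; 0 = DMSO median and -100 = no signal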
rRNA inh HTS RFP: second read-out of rRNA inh HTS, no call of its own (marks repeat the call); RFP signal change, %; measured here: RFP humanized mutant strains;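 first replicate; 0 = DMSO median and -100 = no signal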
An asterisk follows results filed as active.

COc1ccc2oc(=O)c(C(=O)NC(C)c3ccccc3)cc2c1 (centres undefined) was read as E coli growth 0.68, UCH37 DUB inh -259, AF4-AF9 inh 2.8, T cruzi repl 0, rRNA inh HTS -1, Bfl-1 A1 inh 0.8, FGF22 binding inactive, rRNA inh HTS OD600 2 and rRNA inh HTS RFP -0.9.
`CCC(Oc1ccccc1)C(=O)Nc1ccccc1OC` (centres undefined) gave E coli growth 0.67, UCH37 DUB inh 2.7, Beta apoptosis -3, AF4-AF9 inh 0.6, T cruzi repl 14, rRNA inh HTS -2, Bfl-1 A1 inh -1.1, FGF22 binding inactive, rRNA inh HTS OD600 6 and rRNA inh HTS RFP -0.6.
`Cc1nnc(NC(=O)c2nc(S(=O)(=O)Cc3ccccc3)ncc2Cl)s1` gave AF4-AF9 inh -3.7, T cruzi repl -15, rRNA inh HTS 11, FGF22 binding inactive, rRNA inh HTS OD600 0 and rRNA inh HTS RFP 0.1.
COc1ccc(NC(=O)CCCn2cnc3ccccc3c2=O)c(OC)c1 was read as E coli growth 0.63, UCH37 DUB inh 0.8, Beta apoptosis 3, AF4-AF9 inh -0.5, T cruzi repl -7, rRNA inh HTS -1, Bfl-1 A1 inh 0.5, FGF22 binding inactive, rRNA inh HTS OD600 -3 and rRNA inh HTS RFP -4.5.
Cc1ccnc(NS(=O)(=O)c2ccc(NC(=O)C3CC=CCC3C(=O)O)cc2)n1 (centres undefined) was read as E coli growth 0.63, UCH37 DUB inh 1.6, AF4-AF9 inh -2.7, T cruzi repl -8, rRNA inh HTS 24, Bfl-1 A1 inh 0.6, FGF22 binding inactive, rRNA inh HTS OD600 20 and rRNA inh HTS RFP 0.3.
Screening CC1=NN(C(=O)c2ccc(Cn3nc(C)c(Br)c3C)cc2)C(O)(C(F)(F)F)C1 (centres undefined) returned E coli growth 0.68, UCH37 DUB inh 6.9, Beta apoptosis 2, AF4-AF9 inh 0.7, T cruzi repl -24, rRNA inh HTS -8, Bfl-1 A1 inh 0.0, FGF22 binding inactive, rRNA inh HTS OD600 -11 and rRNA inh HTS RFP 17.
Screening O=C(Nc1nc2ccc(F)cc2s1)c1cccs1 returned E coli growth 0.69, UCH37 DUB inh -18, Beta apoptosis 33, AF4-AF9 inh -1.1, T cruzi repl 0, rRNA inh HTS 0, Bfl-1 A1 inh -9.8, FGF22 binding inactive, rRNA inh HTS OD600 14 and rRNA inh HTS RFP -1.2.
Screening CCCn1nnc(NCc2ccc(OCc3cccs3)c(OC)c2)n1 returned E coli growth 0.62, UCH37 DUB inh 0.7, Beta apoptosis -1 and T cruzi repl 8.
Screening COc1ccc(-n2nnnc2CNC(=O)C(=O)c2c(C)[nH]c3ccccc23)cc1 returned E coli growth 0.62, UCH37 DUB inh 3.5, AF4-AF9 inh 0.3, T cruzi repl -4, rRNA inh HTS -3, Bfl-1 A1 inh 0.5, FGF22 binding inactive, rRNA inh HTS OD600 -7 and rRNA inh HTS RFP -1.6.
Screening CC(C)OC(=O)CN1C(=O)C(C)(C)Oc2ccc(C(=O)NC(C)(C)C)cc21 returned E coli growth 0.69, UCH37 DUB inh -2.1, Beta apoptosis -2, T cruzi repl 6 and Bfl-1 A1 inh 0.4.
`C#CCOC(=O)c1ccccc1C(=O)n1nnc2ccccc21` gave E coli growth 0.72, UCH37 DUB inh 1.5, Beta apoptosis -9, T cruzi repl -6 and Bfl-1 A1 inh 0.3.
`O=C(Nc1ccccc1)OCc1ccccn1` gave E coli growth 0.7, UCH37 DUB inh 0.2, Beta apoptosis -3, T cruzi repl -6 and Bfl-1 A1 inh -0.3.
For CC1Cc2cc(C(=O)O)ccc2O1 (centres undefined) the results were E coli growth 0.71, UCH37 DUB inh -2.9, Beta apoptosis 1, T cruzi repl -2 and Bfl-1 A1 inh 0.3.
For COc1ccc(OC)c(S(=O)(=O)CC(O)CS(=O)(=O)c2ccccc2)c1 (centres undefined) the results were E coli growth 0.71, UCH37 DUB inh 5.7, Beta apoptosis -2, AF4-AF9 inh -4.8, T cruzi repl -6, rRNA inh HTS 3, Bfl-1 A1 inh 0.3, FGF22 binding inactive, rRNA inh HTS OD600 2 and rRNA inh HTS RFP -0.1.
Cc1c(Cl)cccc1NC(=O)c1ccccc1-c1ccccc1C(=O)O was read as E coli growth 0.63, UCH37 DUB inh 1.6, Beta apoptosis -4, AF4-AF9 inh -2.6, T cruzi repl -10, rRNA inh HTS -21, Bfl-1 A1 inh 0.5, FGF22 binding inactive, rRNA inh HTS OD600 -16 and rRNA inh HTS RFP -3.8.
For COC(=O)CC/C(O)=C1\C(=O)CC(C)(C)CC1=NCCc1nc2ccccc2[nH]1 the results were E coli growth 0.69, UCH37 DUB inh 2.2, Beta apoptosis -8, AF4-AF9 inh 0.1, T cruzi repl -3, rRNA inh HTS 9, Bfl-1 A1 inh -0.5, FGF22 binding inactive, rRNA inh HTS OD600 2 and rRNA inh HTS RFP 0.3.
Screening CC1CCCCN1CCNC(=O)c1cc2c(=O)n(C)c3ccccc3c2n1C (centres undefined) returned E coli growth 0.78, UCH37 DUB inh -6.8, Beta apoptosis -5, AF4-AF9 inh 1.3, T cruzi repl 6, rRNA inh HTS -3, Bfl-1 A1 inh 0.4, FGF22 binding inactive, rRNA inh HTS OD600 -1 and rRNA inh HTS RFP 2.6.
Screening O=C(c1ccco1)N1CCC(N2CCN(c3ccccc3)CC2)CC1 returned E coli growth 0.67, UCH37 DUB inh 5.9, Beta apoptosis -12, AF4-AF9 inh 2.2, T cruzi repl -5, rRNA inh HTS 4, Bfl-1 A1 inh 0.1, FGF22 binding inactive, rRNA inh HTS OD600 4 and rRNA inh HTS RFP -1.5.
`O=C(C1CC1)N1CCc2cc(S(=O)(=O)NCCC3=CCCCC3)ccc21` gave E coli growth 0.73, UCH37 DUB inh 11, Beta apoptosis -1, T cruzi repl -5 and Bfl-1 A1 inh 1.1.
Cc1c(C(=O)O)sc(S(=O)(=O)N2CCNCC2)c1C(=O)O was read as AF4-AF9 inh -9.0, T cruzi repl -16, rRNA inh HTS 21, FGF22 binding inactive, rRNA inh HTS OD600 -2 and rRNA inh HTS RFP 3.2.

Reprinted at random: 3 records from the list.
`O=C(Nc1ccccc1)OCc1ccccn1` gave E coli growth 0.7, UCH37 DUB inh 0.2, Beta apoptosis -3, T cruzi repl -6 and Bfl-1 A1 inh -0.3.
For COc1ccc(OC)c(S(=O)(=O)CC(O)CS(=O)(=O)c2ccccc2)c1 (centres undefined) the results were E coli growth 0.71, UCH37 DUB inh 5.7, Beta apoptosis -2, AF4-AF9 inh -4.8, T cruzi repl -6, rRNA inh HTS 3, Bfl-1 A1 inh 0.3, FGF22 binding inactive, rRNA inh HTS OD600 2 and rRNA inh HTS RFP -0.1.
`O=C(C1CC1)N1CCc2cc(S(=O)(=O)NCCC3=CCCCC3)ccc21` gave E coli growth 0.73, UCH37 DUB inh 11, Beta apoptosis -1, T cruzi repl -5 and Bfl-1 A1 inh 1.1.

The list goes on.
Screening O=C(NC1CCCCC1)c1cc([N+](=O)[O-])ccc1N1CCCCC1 returned E coli growth 0.67, UCH37 DUB inh 3.9, Beta apoptosis 3, T cruzi repl 7 and Bfl-1 A1 inh 0.7.
Screening O=C(c1cc(-c2cccs2)nc2ccccc12)N1CCN(S(=O)(=O)c2ccccc2)CC1 returned E coli growth 0.82, UCH37 DUB inh -100, Beta apoptosis 8, T cruzi repl 6 and Bfl-1 A1 inh -0.9.
O=C(Oc1ccc(=O)n(-c2ccccc2)n1)c1ccc(F)cc1 was read as E coli growth 0.66, UCH37 DUB inh 8.6, Beta apoptosis -8, AF4-AF9 inh -2.6, T cruzi repl 4, rRNA inh HTS 14, Bfl-1 A1 inh -0.6, FGF22 binding inactive, rRNA inh HTS OD600 14 and rRNA inh HTS RFP -12.
For COc1ccc(NC(=O)CSc2nc3sc4c(c3c(=O)n2-c2ccc(OC)cc2)CCN(C)C4)cc1 the results were E coli growth 0.66, UCH37 DUB inh 4.2, Beta apoptosis -12, AF4-AF9 inh 2.5, T cruzi repl 45, rRNA inh HTS -4, Bfl-1 A1 inh -0.7, FGF22 binding inactive, rRNA inh HTS OD600 14 and rRNA inh HTS RFP 2.5.
Screening CCN(C(=O)C1CC1)C1CCS(=O)(=O)C1 (centres undefined) returned E coli growth 0.62, UCH37 DUB inh -0.1, Beta apoptosis -5, AF4-AF9 inh -2.4, T cruzi repl -7, rRNA inh HTS 6, Bfl-1 A1 inh -0.1, FGF22 binding inactive, rRNA inh HTS OD600 8 and rRNA inh HTS RFP -1.5.
`COc1ccc(-n2[nH]c(C)cc2=O)cc1` gave E coli growth 0.71, UCH37 DUB inh 1.9, Beta apoptosis 2, T cruzi repl -7 and Bfl-1 A1 inh -0.3.
COc1cc(S(=O)(=O)n2ccnc2)ccc1Br was read as E coli growth 0.69, UCH37 DUB inh 5.1, Beta apoptosis -8, AF4-AF9 inh -2.1, T cruzi repl -10, rRNA inh HTS 9, Bfl-1 A1 inh 1.4, FGF22 binding inactive, rRNA inh HTS OD600 8 and rRNA inh HTS RFP 1.0.
`CC1Cc2ccccc2N1C(=O)COC(=O)Cn1nnc(-c2ccccc2)n1` (centres undefined) gave E coli growth 0.69, UCH37 DUB inh 5.6, Beta apoptosis -8, T cruzi repl -14 and Bfl-1 A1 inh -0.7.
Cc1cnc(NC(=O)C2CC=CCC2)s1 (centres undefined) was read as E coli growth 0.69, UCH37 DUB inh 0.8, Beta apoptosis -7, AF4-AF9 inh -3.0, T cruzi repl -21, rRNA inh HTS 6, Bfl-1 A1 inh -1.1, FGF22 binding inactive, rRNA inh HTS OD600 8 and rRNA inh HTS RFP -0.5.
Cc1ccccc1NC(=O)C1CCN(S(=O)(=O)c2cccs2)CC1 was read as E coli growth 0.7, UCH37 DUB inh 0.8, Beta apoptosis 1, AF4-AF9 inh 0.0, T cruzi repl -2, rRNA inh HTS 1, Bfl-1 A1 inh 1.4, FGF22 binding inactive, rRNA inh HTS OD600 1 and rRNA inh HTS RFP -1.6.
For N#CCC(=O)NC1CCC(CC2CCC(NC(=O)CC#N)CC2)CC1 (centres undefined) the results were E coli growth 0.68, UCH37 DUB inh 1.0, Beta apoptosis -2, AF4-AF9 inh -2.1, T cruzi repl -1, rRNA inh HTS -1, Bfl-1 A1 inh 0.1, FGF22 binding inactive, rRNA inh HTS OD600 -1 and rRNA inh HTS RFP -0.2.
Screening O=C(COc1ccccc1Br)NCc1ccccn1 returned E coli growth 0.64, UCH37 DUB inh 6.5, Beta apoptosis -3, T cruzi repl -11 and Bfl-1 A1 inh -0.2.

The list is partial, so the mix of outcomes need not match the whole.
